StopGo reporter – FMDV 2A StopGo reporter, luciferase signal; human cells with a luciferase reporter of 2A StopGo recoding; control for the full effect not named in the record; Potency, µM (doses to about 57.9 µM), for the others: at the highest dose signal change, negative = less light; 1.2% of 410,000 active; active = well fitted falling curve with a large enough effect; inconclusive = small, poorly fitted or top-dose-only effect; inactive = no such curve, though single readings can be large or run the other way; tested in HEK293T cells; further: on the % scale 0 is the no-effect control and ±100 the full control effect; nearly all actives have a fitted effect of over 45% in size; luciferase light after 4 h
Cruzain noTriton – cruzain (T. cruzi) inhibition without detergent | P25779 | purified cruzain, Z-FR-AMC fluorescence, no detergent | Potency, µM, for the others: max response, negative = inhibition, usual class: inhibitors | 2.3% of 200,000 active | AID 1476;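 further: plate controls were enzyme without inhibitor for no effect and buffer without enzyme for full effect; nearly all actives have a fitted effect of over 40% in size; top concentration of the series not given in the record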
Target sequence (P25779 123-467 limits assumed): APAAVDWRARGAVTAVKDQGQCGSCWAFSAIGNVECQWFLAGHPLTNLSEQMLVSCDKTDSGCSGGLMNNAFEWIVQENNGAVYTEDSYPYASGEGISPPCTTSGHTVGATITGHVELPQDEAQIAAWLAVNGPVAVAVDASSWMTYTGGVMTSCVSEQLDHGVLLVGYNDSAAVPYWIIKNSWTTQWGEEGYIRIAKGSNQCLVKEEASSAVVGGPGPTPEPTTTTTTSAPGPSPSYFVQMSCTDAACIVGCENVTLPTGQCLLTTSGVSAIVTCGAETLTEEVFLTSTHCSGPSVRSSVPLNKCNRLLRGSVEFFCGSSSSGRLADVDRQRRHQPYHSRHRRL
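Detergent-free condition (0.00005% Triton X-100) in acetate buffer pH 5.5 with DTT. 1.5 nM enzyme and compound were pre-mixed 15 min, then 2 uM Z-FR-AMC substrate added; reaction progress from fluorescence change between first and third reads (60 s).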
RE007 growth inh – less growth of the S. pombe RE007 Vpr strain; S. pombe RE007 Vpr strain, BacTiter-Glo ATP luminescence, 24 h; control for the full effect not named in the record; Potency, µM (titrated, usually from 92.2 µM), for the others: at the highest dose activity change, negative = less growth; 0.21% of 360,000 active; active = well fitted falling curve with a large enough effect; inconclusive = small, poorly fitted or top-dose-only effect; inactive = no such curve, though single readings can be large or run the other way;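 further: on the % scale 0 is the no-effect control and ±100 the full control effect; nearly all actives have a fitted effect of over 50% in size; the assay follows cell death caused by Vpr and the record does not say whether a fall means rescue or toxicity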
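Fission yeast strain RE007, carrying one chromosomally integrated HIV-1 vpr copy, was seeded at OD 0.01 in PMG+AL medium with 23 nL pinned compound. After 24 h at 30 °C and 99% humidity, viability was read by BacTiter-Glo luminescence.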
Lassa entry inh – inhibitors of Lassa virus binding or cell entry. Lassa virus pseudotype entry inhibition, cell reporter; control for the full effect not named in the record. AID 540256. 1.2% of 300,000 active. Potency, µM (highest dose often 37.9 µM), for inactives: at the top dose activity change, negative = inhibition, hits mostly inhibitors; active means well fitted inhibition curve with a large enough effect; inconclusive means small, poorly fitted or top-dose-only effect, or effect the other way; inactive means flat fitted curve, though single readings scatter; tested in HEK293 cells; further: on the % scale 0 is the no-effect control and ±100 the full control effect; nearly all actives have a fitted effect of over 50% in size; luciferase read-out
Cruzain inh Det – cruzain (T. cruzi) inhibition with detergent; Potency, µM, for the others: max response, negative = inhibition, actives largely listed as inhibitors; AID 1478; purified cruzain, Z-FR-AMC fluorescence, 0.01% Triton; 0.43% of 200,000 active;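 further: plate controls were neutral wells for no effect and buffer without enzyme for full effect; nearly all actives have a fitted effect of over 40% in size; top concentration of the series not given in the record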
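Cysteine protease activity tested under reducing, mildly acidic conditions (100 mM sodium acetate pH 5.5, 5 mM DTT) plus 0.01% Triton X-100. Cruzain 1.5 nM; substrate Z-FR-AMC 2 uM; 15 min compound preincubation at room temperature.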
NS1 inh – blocks influenza NS1 protein function | S. cerevisiae slowed by influenza A NS1, growth recovery by OD600 | Potency, µM (series often up to 46.1 µM), for inactives: top-dose activity, positive = more growth | 0.4% of 270,000 active; active means well fitted rising curve with a large enough effect; inconclusive means small, poorly fitted or top-dose-only effect; inactive means no such curve, though single readings can be large or run the other way; further: nearly all actives have a fitted effect of over 50% in size
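Compounds were scored for reversing the slow growth caused by influenza A NS1 in S. cerevisiae, measured by optical density at 600 nm. Assay medium contained 2% galactose at pH 6.0; NS1-free yeast of the same strain were the positive control.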
SARS PLpro yeast – inhibitors of SARS-CoV papain-like protease in yeast; S. cerevisiae expressing SARS-CoV PLpro, growth rescue; control for the full effect not named in the record; Potency, µM (series often up to 32.9 µM), for inactives: at the top dose activity, positive = growth rescue; 0.19% of 330,000 active; active means well fitted rising curve with a large enough effect; inconclusive means small, poorly fitted or top-dose-only effect; inactive means no such curve, though single readings can be large or run the other way; further: 0% is about no effect; nearly all actives have a fitted effect of over 55% in size; growth read by luminescence after 48 h
MARV entry inh – Marburg virus entry inhibition. Marburg virus pseudotyped entry inhibition, cell reporter; control for the full effect not named in the record; about a third of the inactives were read at about 46 µM. Potency, µM (titrated, usually from 37.8 µM), for the others: at the highest dose activity change, negative = inhibition, usual class: inhibitors. 1.8% of 300,000 active. AID 540276; active = well fitted inhibition curve with a large enough effect; inconclusive = small, poorly fitted or top-dose-only effect, or effect the other way; inactive = flat fitted curve, though single readings scatter; tested in HEK293 cells; about a fifth of its hits are not listed in these tables; further: on the % scale 0 is the no-effect control and ±100 the full control effect; luciferase read-out
Starred values were filed as active, the others as inactive; ? = inconclusive; · = no result given; [ ] = dose if it differs, or a comment. Unless noted, the call rests on the fitted dose curve; in most records, active means well fitted curve in the direction sought with a large enough effect; inconclusive means small, poorly fitted or top-dose-only effect, or another doubt; inactive means no such curve, though single readings can be large; an effect the other way counts as inactive or inconclusive. Potency means the concentration at half of the fitted maximal effect.

Fields – StopGo reporter | Cruzain noTriton | RE007 growth inh | Lassa entry inh | Cruzain inh Det | NS1 inh | SARS PLpro yeast | MARV entry inh
> Cc1ccc(C2CC(=O)n3nc(-c4ccc(F)cc4)nc3S2)cc1 (stereo not given)
→ -15% | -2% | · | 2%[46.1 µM] | -2.7% | · | · | -4%[46.1 µM]
> O=C(Nc1ccc2ccccc2n1)c1ccccc1Cl
→ 2% | · | -5% | · | · | -3% | -3% | ·
> CCOc1ccc(C(=O)OC(C)C(=O)N2CCN(Cc3ccccc3)CC2)cc1 (stereo not given)
→ -27% | · | -30% | ? | · | · | 10% | -21%
> CCOC(=O)c1sc2ccccc2c1S(=O)(=O)Nc1ccc(OC)c(Cl)c1
→ 0% | -12% | · | · | -7.7% | · | · | ·
> CC(/C=C1\SC(=S)N(CC(=O)N2CCN(c3ccccc3)CC2)C1=O)=C\c1ccccc1
→ -19% | 10µM* | -8% | ? | -6.1% | -6% | -10% | -22%
> CCOC(=O)N=S(=O)(Oc1ccc([N+](=O)[O-])cc1)c1ccccc1 (stereo not given)
→ 5% | 8% | -2% | 4% | 2.1% | -1% | 6% | 23%
> O=C(NCc1ccc(Cl)cc1)C(=O)c1c[nH]c2ccccc12
→ 18% | · | 8% | · | · | -2% | -1% | ·
> COc1cc(COCC(O)CN2CCCCC2C)cc(OC)c1OC (stereo not given)
→ -3% | · | -4% | · | · | 2% | -3% | ·
> Cc1oc(-c2cccc(Cl)c2)nc1CN1CCC(C(=O)NCCCN2CCN(c3cccc(Cl)c3)CC2)CC1
→ ? | -5% | · | ? | -3.7% | · | · | ?
> O=C(C1CCC1)N1CCc2cc(S(=O)(=O)N3CCN(c4ccccc4)CC3)ccc21
→ 0% | -11% | · | -2%[46.1 µM] | 0.6% | · | · | -1%[46.1 µM]
> Cc1cccc(NC(=O)Cn2cc(C(=O)c3ccccc3)c3ccccc32)c1
→ -21% | -3% | · | ? | -5.4% | · | · | ?
> CC1CCCN(Cc2c(O)ccc3c2O/C(=C\c2ccco2)C3=O)C1 (stereo not given)
→ -3% | ? | -8% | ? | -25% | -4% | 11% | 0%
> CN(CC(=O)Nc1ccncc1)S(=O)(=O)c1ccc(Cl)cc1
→ -22% | 1% | 1% | 0% | 3.1% | -3% | -3% | -24%
> O=C(O)CN1C(=O)C2(OCCCO2)c2ccccc21
→ 11% | -5% | 17% | 12% | 1.3% | -8% | 0% | -8%
> CCOC(=O)c1cnc(SCC(=O)c2ccccc2)nc1N
→ 6% | -13% | 1% | ? | -3.0% | -7% | 3% | 10%
> CN(C)N=C1c2cc(S(=O)(=O)N(C)C)ccc2-c2ccc(S(=O)(=O)N(C)C)cc21
→ -12% | · | -9% | · | · | -16% | 0% | ·
> CCOc1cccc(/C(O)=C2/C(=O)C(=O)N(Cc3ccco3)C2c2ccncc2)c1 (stereo not given)
→ 18% | 0% | 7% | 11% | -1.8% | -4% | -15% | 12%
> CCCCN(Cc1cccs1)S(=O)(=O)c1csc(C(N)=O)c1
→ 33%[activator] | · | 2% | · | · | -13% | 1% | ·
> COc1cc2c(Cc3ccccc3)cncc2cc1O
→ ? | · | 20% | -4% | · | · | · | 12%
> Cc1ccc(SC(C)C(=O)Nc2cccc(N(C)S(C)(=O)=O)c2)cc1 (stereo not given)
→ ? | 0% | -17% | ? | 2.2% | 2% | 3% | -13%
> CCc1ccc(OCCCC(=O)Nc2nnc(C3CCCO3)s2)cc1 (stereo not given)
→ -2% | · | -16% | 6% | · | 4% | -1% | -13%[46.1 µM]
> CC1CCCCN1C(=O)C(=O)c1cn(CC(=O)N2CCCCCC2)c2ccccc12 (stereo not given)
→ -10% | · | -9% | 16%[46.1 µM] | · | 0% | -7% | -13%[46.1 µM]
> O=C(CN1C(=O)COc2ccccc21)NCC1CCCO1 (stereo not given)
→ 32%[activator] | · | 8% | 9%[46.1 µM] | · | 2% | 0% | 16%[46.1 µM]
> COC(=O)c1ccc(C(=O)OC)c(NC(=S)N2CCN(c3ccccc3F)CC2)c1
→ -8% | 14% | 8% | 16% | -4.4% | -15% | 29% | ?
> COc1cc(NS(=O)(=O)c2ccc3[nH]c(=O)oc3c2)cc(OC)c1
→ 8% | · | 4% | 22%[46.1 µM] | · | · | 2% | 11%[46.1 µM]
> N#Cc1ccccc1Sc1ccccc1C(=O)N1CCOCC1
→ -5% | -1% | 15% | -19% | -4.1% | -19% | 6% | -10%
> NC(=NC(=O)c1ccc(OCC(F)(F)F)nc1)c1ccccc1
→ 13% | · | -14% | · | · | -2% | -9% | ·
> COc1ccc(CCNc2cc(-c3ccccc3)nc3ncnn23)cc1
→ -13% | -12% | 0% | 3% | -4.4% | -7% | -1% | ?
> O=C(COC(=O)/C=C/c1ccc([N+](=O)[O-])cc1)NNC(=O)c1ccccc1
→ -14% | · | 1% | 23% | · | · | 2% | ?
> Cc1csc(-c2coc3cc(O)cc(C)c3c2=O)n1
→ 44%[activator] | 11% | -28% | -21% | -6.7% | -32% | -6% | 1%

The list goes on, starting with the last 3 of the part before.
Fields – StopGo reporter | Cruzain noTriton | RE007 growth inh | Lassa entry inh | Cruzain inh Det | NS1 inh | SARS PLpro yeast | MARV entry inh
> COc1ccc(CCNc2cc(-c3ccccc3)nc3ncnn23)cc1
→ -13% | -12% | 0% | 3% | -4.4% | -7% | -1% | ?
> O=C(COC(=O)/C=C/c1ccc([N+](=O)[O-])cc1)NNC(=O)c1ccccc1
→ -14% | · | 1% | 23% | · | · | 2% | ?
> Cc1csc(-c2coc3cc(O)cc(C)c3c2=O)n1
→ 44%[activator] | 11% | -28% | -21% | -6.7% | -32% | -6% | 1%
> CC(=O)N1c2ccccc2NC(=O)C1(C)C
→ 13% | 1% | -7% | -13% | 2.1% | -7% | · | 7%
> Cc1ccc(-c2nonc2NC(=O)c2ccco2)cc1C
→ -12% | 9% | · | 0%[46.1 µM] | -2.8% | · | · | 18%[46.1 µM]
> Cc1ccc2nc(-c3cccnc3)oc2c1
→ 5% | -6% | -15% | ? | 0.2% | -9% | 3% | -29%
> Cc1ccc(C(=O)O)cc1N1C(=O)c2cccc3cc(Br)cc(c23)C1=O
→ 0% | -6% | -2% | -9% | 2.6% | -4% | -2% | 5%
> CCOc1ccc(NS(=O)(=O)c2ccc3[nH]cc(C(=O)N(C)C4CCCCC4)c(=O)c3c2)cc1
→ 1% | 4% | · | -5%[46.1 µM] | -0.7% | · | · | ·
> COc1ccc2nc(NC(=O)CSc3nc(SC)ns3)sc2c1
→ 4% | ? | -17% | · | -8.0% | -19% | 8% | ·
> CCCC(=O)Nc1cc(OC)c(NC(=O)NC2CCCCC2)cc1OC
→ · | -2% | 2% | 15% | 1.9% | -12% | 1% | 23%
> CN(C(=O)CSc1nncn1-c1ccccc1)c1ccccc1
→ 7% | · | 0% | 5% | · | -4% | -5% | 1%[46.1 µM]
> COc1ccc(C(=O)NCC(=O)N2CCC(C)CC2)cc1OC
→ 3% | -4% | -2% | 0% | 1.1% | -5% | -5% | 24%
> CSc1ccc(CN2CCN(C(C)C)C(CCO)C2)cc1 (stereo not given)
→ -8% | · | 1% | 2% | · | -1% | -1% | ?
> CCc1nnc(SCC(=O)Nc2ccc(Cl)cc2F)c2cc3occc3n12
→ ? | ? | · | ? | -10% | · | · | ·
> CC1(C)CC(=O)C=C(Nc2ccc(Cl)cc2)C1
→ 4% | · | 10% | 8%[46.1 µM] | · | -6% | -1% | 0%[46.1 µM]
> COc1ccccc1C(C(=O)NC1CCCC1)N(C(=O)c1csnn1)C1CC1 (stereo not given)
→ -5% | · | -6% | -9% | · | 23% | 1% | -3%[46.1 µM]
> Cc1cc(C(=O)Nc2ccccc2N2CCOCC2)c2ccccc2n1
→ -30% | 5% | -17% | ? | 8.0% | -18% | 1% | -16%
> CC1CCC2(CC1)NC(=O)N(CC(=O)NC(=O)NC1CCCC1)C2=O (stereo not given)
→ · | 8% | 12% | -8% | 3.3% | -2% | 1% | 0%
> COc1ccc(Cl)cc1S(=O)(=O)Nc1ccncc1
→ 0% | · | 4% | -4% | · | 7% | 0% | 3%[46.1 µM]
> CC1CCC(NC(=O)c2cc(S(=O)(=O)N3CCCCC3)c[nH]2)CC1 (stereo not given)
→ 3% | · | -2% | · | · | 0% | 0% | ·
> Cc1ccc(NC(=O)CC(C)CC2=NS(=O)(=O)c3ccccc3N2)cc1 (stereo not given)
→ 18% | · | -20% | · | · | -1% | 9% | ·
> COC(C(=O)Nc1ccc(S(=O)(=O)Nc2c(C)cccc2C)cc1)c1ccccc1 (stereo not given)
→ 11% | 20% | -4% | 2% | -4.4% | -1% | 24% | 0%
> CCOc1ccccc1NC(=O)C1CCCN(S(=O)(=O)c2cn(C)cn2)C1 (stereo not given)
→ 3% | -18% | · | -12%[46.1 µM] | 0.6% | · | · | ·
> Cc1ccc(NC(=O)N(CCCN2CCOCC2)Cc2cccnc2)cc1C
→ -28% | -5% | 2% | · | 4.1% | -1% | 1% | -4%
> CCCCN(C(=O)Cn1nnc2ccccc21)C(C(=O)NCc1ccco1)c1ccncc1 (stereo not given)
→ 17% | -5% | -18% | 4% | 0.5% | -12% | 2% | ?
> Cc1c(Cc2ccccc2)c(=O)oc2c(C)c(OC(C)C(=O)NCC3CCC(C(=O)O)CC3)ccc12 (stereo not given)
→ -7% | · | 9% | · | · | 5% | -11% | ·
> O=C(CCc1nc(-c2ccccc2F)no1)Nc1cccnc1
→ -24% | · | -3% | · | · | -12% | -2% | ·
> CCCS(=O)(=O)c1c(S(=O)(=O)CCC)c2ccc(C(C)=O)cn2c1C(=O)OC
→ 7% | · | 4% | 11% | · | -2% | 0% | -9%[46.1 µM]
> Cc1csc(SCC(=O)c2c(N)n(CC(C)C)c(=O)n(C)c2=O)n1
→ ? | -11% | -24% | -16% | -3.7% | 5% | 3% | -14%
> O=Cc1ccc(-n2cccn2)cc1
→ 1% | · | -17% | 14%[46.1 µM] | · | · | 2% | 1%[46.1 µM]
> Cc1nnc(SCC(=O)Nc2ccc3c(c2)OCO3)[nH]c1=O
→ -14% | · | 4% | 10% | · | · | -3% | ?

Screening data: PubChem BioAssay, National Center for Advancing Translational Sciences (NCATS)
